# Compound activity from PubChem.
# mABHD4 FP: ABHD4 inhibitors, primary screen, biochemical, fluorescence polarization, mouse; inhibition, % at 8.92 µM; purified mABHD4, FP-Rh probe fluorescence polarization; 370,000 compounds, 0.54% hits;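 active means inhibition exceeding the mean over every tested compound plus 3 SD, cut at about 30% in these data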;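 further: 0% = plate median of compound wells and 100% = S159A mutant with DMSO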
#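 Assay system: mABHD4 protein; medium: HEPES pH 7.0, NaCl, Pluronic buffer; dosing: 8.92 µM, single dose; schedule: 45 min + 60 min at 25 °C; signal: FP readout, ex 525 nm / em 598 nm; read-out: normalized percent inhibition of probe labeling; repeats: single replicate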
# LEDGF integ inh: blockers of LEDGF/p75-dependent integrase strand transfer – biochemical, TR-FRET, high throughput, primary screen; HIV-1 integrase (with human LEDGF/p75); TR-FRET IN-LEDGF/p75 DNA integration, Eu/Cy5; inhibition, % at 3.7 µM; 370,000 compounds, 0.64% hits;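 active means inhibition above the screen-wide mean plus 3 SD, cut at about 13% in these data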;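 further: signal is the Cy5 over europium emission ratio at 671 and 618 nm; 0% = plate median of compound wells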
# Rev-erbA mod: modulators of Rev-erb alpha DNA binding, primary screen, biochemical, FITC-DNA, fluorescence polarization, uHTS; Nuclear receptor subfamily 1 group D member 1 (Homo sapiens), P20393; Rev-erbα–FITC-DNA binding, 90 min; AID 1259318, 2017; 370,000 compounds, 0.79% hits; activity, % at 10 µM;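 active means activity above about 14%, limit read from the data; passing the limit was not always enough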;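 further: 0% = DMSO wells with 35 nM protein and 100% = DMSO wells with 750 nM protein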
# TCR CD3 inh: inhibitors of human TCR-CD3 interaction, primary screen, biochemical, fluorescence, TAMRA-labeled TCR probe. T-cell receptor (TCR). inhibition, % at 9.4 µM. 360,000 compounds, 0.37% hits. AID 651800, 2012; in the data active means inhibition above about 19%;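 further: recombinant mutant TCR 2C K166C tagged with TAMRA read by polarization; 0% = receptor in buffer alone and 100% = receptor with positive control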
# PG9 binder: binders of HIV-1 gp120 antibody PG9, primary screen, biochemical, TR-FRET; HIV-1 gp120 / PG9 antibody interaction; TR-FRET gp120-PG9 antibody binding; inhibition, % at 6.7 µM; 360,000 compounds, 0.43% hits; AID 624416, 2012; in the data active means inhibition above about 8.5%
# MBD2 inh: inhibitors of MBD2 binding to methylated DNA, primary screen, biochemical, TR-FRET, DNA-binding domain, human. Methyl-CpG-binding domain protein 2 (Homo sapiens), Q9UBB5. MBD2 binding to methylated oligonucleotide. inhibition, % at 4.4 µM. 370,000 compounds, 0.31% hits. AID 686964, 2013; in the data active means inhibition above about 13%
# UHRF1 binding: UHRF1 methylated DNA binding inhibitors, primary screen, counter-screen for MBD2 inhibitor project, biochemical, TR-FRET, human UHRF1, single concentration; E3 ubiquitin-protein ligase UHRF1 (Homo sapiens), Q96T88; UHRF1 binding to methylated oligo; inhibition, % at 4.4 µM; 370,000 compounds, 0.75% hits; in the data active means inhibition above about 21%;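 further: UHRF1 SRA domain binding a hemimethylated CpG hairpin DNA probe; 0% = median of test compound wells and 100% = reference inhibitor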
# Target sequence (Q96T88 whole entry, looked up, the tested form may be a part): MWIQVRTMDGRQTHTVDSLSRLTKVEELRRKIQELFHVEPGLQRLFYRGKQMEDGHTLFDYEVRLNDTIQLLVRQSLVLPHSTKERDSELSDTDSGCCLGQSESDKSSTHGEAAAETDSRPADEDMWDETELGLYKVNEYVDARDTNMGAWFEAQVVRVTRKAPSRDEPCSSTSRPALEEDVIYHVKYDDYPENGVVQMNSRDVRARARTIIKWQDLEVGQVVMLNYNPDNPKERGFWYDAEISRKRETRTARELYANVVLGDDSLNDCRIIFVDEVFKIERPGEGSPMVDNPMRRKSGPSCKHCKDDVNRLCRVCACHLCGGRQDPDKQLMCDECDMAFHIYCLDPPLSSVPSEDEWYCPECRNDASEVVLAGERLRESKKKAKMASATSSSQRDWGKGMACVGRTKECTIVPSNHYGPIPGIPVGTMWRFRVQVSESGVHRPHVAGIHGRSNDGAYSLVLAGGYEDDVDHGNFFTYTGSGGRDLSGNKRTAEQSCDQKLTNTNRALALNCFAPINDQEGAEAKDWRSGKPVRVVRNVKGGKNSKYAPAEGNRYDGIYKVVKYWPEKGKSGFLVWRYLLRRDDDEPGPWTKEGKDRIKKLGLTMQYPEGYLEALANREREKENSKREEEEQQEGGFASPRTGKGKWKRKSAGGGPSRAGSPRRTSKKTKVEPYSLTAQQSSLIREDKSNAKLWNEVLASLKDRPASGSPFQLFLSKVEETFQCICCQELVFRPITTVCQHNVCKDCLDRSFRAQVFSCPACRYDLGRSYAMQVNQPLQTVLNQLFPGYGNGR
# rCAG RNA binder: binders of r(CAG) RNA repeats, primary screen, biochemical, fluorescence | r(CAG) RNA repeat, TO-PRO-1 dye displacement fluorescence | inhibition, % at 3 µM | 370,000 compounds, 1.3% hits;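 active means inhibition above the plate cutoff, the mean of all test compounds on that plate plus 3 SD, cut at about 35% in these data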;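 further: 0% = DMSO alone and 100% = 100 µM mitoxantrone as full dye displacement; higher means more dye released from RNA so lower well fluorescence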
# PRMT1 FP inh: PRMT1 methyltransferase inhibitors, primary screen, biochemical, fluorescence polarization. Protein arginine N-methyltransferase 1 (Homo sapiens), Q99873. recombinant PRMT1, activity-based probe fluorescence polarization. inhibition, % at 2.79 µM. 370,000 compounds, 1.3% hits. AID 652257, 2013;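 active means inhibition above about 21% made by adding two undisclosed values, limit read from the data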
# Starred values were filed as active, the others as inactive.
SMILES,mABHD4 FP,LEDGF integ inh,Rev-erbA mod,TCR CD3 inh,PG9 binder,MBD2 inh,UHRF1 binding,rCAG RNA binder,PRMT1 FP inh
O=c1[nH][nH]c2cc(=O)n(-c3ccc(Cl)cc3)nc12,54*,7,-8,14,-4.6,-14,-9,43*,12
O=C(CS(=O)(=O)c1ccccc1)Nc1ncc([N+](=O)[O-])s1,9,0,0,-5,-1.1,0,-2,3,1
O=C(O)c1cc2ccc3ccccc3c2oc1=O,-3,0,7,2,0.6,-7,-4,4,-1
CC(C)OCCCN1CC(=O)N2[C@@H](Cc3c([nH]c4ccccc34)C2(C)C)C1=O,1,5,-4,-3,-1.6,1,-1,-3,-2
O=C1CSC(c2c(F)cccc2Cl)N1c1cccc(F)c1 (stereo not drawn),0,-5,5,-5,-0.6,-5,3,1,2
Cc1cc(C)nc(N/N=C/C=C/c2ccccc2)n1,-7,3,0,3,-3.8,-1,-5,1,-2
CCOC(=O)c1c(C)[nH]c(C)c1C(=O)COC(=O)c1ccc([N+](=O)[O-])s1,8,12,2,0,-1.9,0,-1,8,2
CCCSc1nc(N2CCCC2)c2c(c1C#N)CC(C)(C)OC2,6,2,4,7,0.8,-3,10,2,0
CC1=C(C(=O)Nc2cccnc2)C(c2ccccn2)n2nnnc2N1 (stereo not drawn),-2,-7,-1,5,0.3,3,1,1,4
O=C(Cc1cccc2ccccc12)N/N=C/c1ccc2cccc(O)c2n1,5,-7,-8,-11,1.0,6,-2,6,5
C(=N\Nc1ncnc2sc3c(c12)CCC3)/c1cccs1,16,6,10,1,-4.1,1,-6,16,-4
O=C(C1CC(=O)N(c2ccc3c(c2)OCCO3)C1)N1CCN(Cc2ccccc2)CC1 (stereo not drawn),1,-1,-7,1,-2.5,-3,1,-1,-7

# Whole records, looked up by structure. Values in the order: mABHD4 FP	LEDGF integ inh	Rev-erbA mod	TCR CD3 inh	PG9 binder	MBD2 inh	UHRF1 binding	rCAG RNA binder	PRMT1 FP inh
# `CC(C)OCCCN1CC(=O)N2[C@@H](Cc3c([nH]c4ccccc34)C2(C)C)C1=O` is entered as 1	5	-4	-3	-1.6	1	-1	-3	-2
# `O=C(C1CC(=O)N(c2ccc3c(c2)OCCO3)C1)N1CCN(Cc2ccccc2)CC1` (stereo not drawn) is entered as 1	-1	-7	1	-2.5	-3	1	-1	-7
# `O=C(O)c1cc2ccc3ccccc3c2oc1=O` is entered as -3	0	7	2	0.6	-7	-4	4	-1

# Random excerpt: 5 entries already listed
SMILES,mABHD4 FP,LEDGF integ inh,Rev-erbA mod,TCR CD3 inh,PG9 binder,MBD2 inh,UHRF1 binding,rCAG RNA binder,PRMT1 FP inh
CC(C)OCCCN1CC(=O)N2[C@@H](Cc3c([nH]c4ccccc34)C2(C)C)C1=O,1,5,-4,-3,-1.6,1,-1,-3,-2
O=c1[nH][nH]c2cc(=O)n(-c3ccc(Cl)cc3)nc12,54*,7,-8,14,-4.6,-14,-9,43*,12
O=C(C1CC(=O)N(c2ccc3c(c2)OCCO3)C1)N1CCN(Cc2ccccc2)CC1 (stereo not drawn),1,-1,-7,1,-2.5,-3,1,-1,-7
O=C(Cc1cccc2ccccc12)N/N=C/c1ccc2cccc(O)c2n1,5,-7,-8,-11,1.0,6,-2,6,5
O=C1CSC(c2c(F)cccc2Cl)N1c1cccc(F)c1 (stereo not drawn),0,-5,5,-5,-0.6,-5,3,1,2

# (more compounds)
SMILES,mABHD4 FP,LEDGF integ inh,Rev-erbA mod,TCR CD3 inh,PG9 binder,MBD2 inh,UHRF1 binding,rCAG RNA binder,PRMT1 FP inh
C=CCn1c(SCC(=O)NCCc2ccccc2)nnc1C(C)NC(=O)c1cccs1 (stereo not drawn),0,-3,1,5,0.2,-3,15,-6,-2
C=C(C)c1cccc(C(C)(C)NC(=O)NCc2ccc(OC)c(OC)c2)c1,2,-4,2,4,-0.5,1,1,-2,-2
CCOc1ccccc1Oc1coc2cc(OC)ccc2c1=O,4,0,-5,11,-0.1,4,10,-3,-3
O=C(Nc1ccccc1N1CCCCC1)c1ncoc1-c1cccc(F)c1,-1,1,3,-2,-1.0,-1,-1,1,-7
Cc1ccc(CSc2nnc(SCC(=O)N/N=C/C=C/c3ccccc3[N+](=O)[O-])s2)cc1,-1,-1,7,3,-3.8,1,-1,4,-5
COC(=O)c1noc(-c2ccc(C)cc2)n1,-2,-1,1,-4,-0.1,3,5,-4,-3
C/C(=N\NC(=O)c1ccc(NS(=O)(=O)c2cccs2)cc1)c1ccccc1,-6,-5,1,-4,-0.4,3,0,15,4
Cc1cc(C)c(NC(=O)C2CCCN2C(=O)NC2CCCCC2)c(C)c1 (stereo not drawn),-2,0,-3,4,0.3,-5,-2,-3,-2
Cc1cccc(C(=O)NCC(=O)NC2CCC(C)CC2)c1 (stereo not drawn),6,6,-4,3,-2.8,-7,1,-1,-1
O=C(COC(=O)Cc1cccc(F)c1)NC(=O)NC1CCCCC1,3,-5,-2,9,1.1,0,0,-6,-1
CC(=O)NC(=S)NNC(=O)COc1ccc(Br)cc1,8,2,2,8,1.1,-5,1,-1,4
COc1ccc(COC[C@H](C)[C@H](O)[C@@H](C)[C@H]2OC(=O)[C@@H]2C)cc1,0,0,-1,2,1.2,3,3,-5,-2

# Sorted by formula weight (low to high): part of the list above
SMILES,mABHD4 FP,LEDGF integ inh,Rev-erbA mod,TCR CD3 inh,PG9 binder,MBD2 inh,UHRF1 binding,rCAG RNA binder,PRMT1 FP inh
CCOc1ccccc1Oc1coc2cc(OC)ccc2c1=O,4,0,-5,11,-0.1,4,10,-3,-3
Cc1cc(C)c(NC(=O)C2CCCN2C(=O)NC2CCCCC2)c(C)c1 (stereo not drawn),-2,0,-3,4,0.3,-5,-2,-3,-2
O=C(Nc1ccccc1N1CCCCC1)c1ncoc1-c1cccc(F)c1,-1,1,3,-2,-1.0,-1,-1,1,-7
C=CCn1c(SCC(=O)NCCc2ccccc2)nnc1C(C)NC(=O)c1cccs1 (stereo not drawn),0,-3,1,5,0.2,-3,15,-6,-2
Cc1ccc(CSc2nnc(SCC(=O)N/N=C/C=C/c3ccccc3[N+](=O)[O-])s2)cc1,-1,-1,7,3,-3.8,1,-1,4,-5

# Further results.
SMILES,mABHD4 FP,LEDGF integ inh,Rev-erbA mod,TCR CD3 inh,PG9 binder,MBD2 inh,UHRF1 binding,rCAG RNA binder,PRMT1 FP inh
c1ccc(-n2nnnc2-c2cnc(-c3ccncc3)nc2-c2cccs2)cc1,-12,1,4,5,-0.7,4,1,-7,0
Cc1nn(Cc2ccccc2Cl)c(C)c1NC(=O)NC12CC3CC(CC(C3)C1)C2,-5,4,4,-1,-1.9,-1,1,-5,1
NC(=O)c1ccc(-c2c(-c3ccccc3)sc3ccccc23)cc1,-13,4,1,-3,-0.4,10,13,10,2
Cc1ccc(C)c(NC(=O)CSc2ccc(-c3ccco3)nn2)c1,5,2,2,7,-1.4,-3,-1,8,16
Cc1cc(C(=O)N(C)Cc2c(F)cccc2Cl)c2ccccc2n1,-5,2,0,4,0.0,3,-2,-3,-4
O=C(CNC(=O)c1ccccc1F)NNC(=O)c1ccccc1O,3,-2,-6,58*,-1.8,-2,-3,3,-8
CCC(=O)NC(=S)NNC(=O)COc1ccc(Br)cc1,7,-5,-1,5,-0.4,-3,-2,1,-1
O=C(CCS(=O)(=O)c1ccccc1)Nc1nnc(C(F)(F)F)s1,3,1,10,8,-2.8,3,-2,1,-3
COc1ccc(-c2ccc(-c3nnc(-c4cc(OC)ccc4OC)o3)cc2)cc1,10,2,7,0,-2.6,2,0,3,-1
O=C1CCC/C(=N/NC(=O)c2ccc(NS(=O)(=O)c3cccs3)cc2)C1,14,0,-4,4,-0.6,-4,-1,12,6
CC(=O)Nc1cccc(/C(C)=N/NC(=O)c2ccc(NS(=O)(=O)c3cccs3)cc2)c1,-5,7,0,-1,-1.5,1,2,14,-4
O=C(NCCCn1ccnc1)/C(=C\c1cccnc1)NC(=O)c1ccco1,-1,-6,-1,-3,-0.9,4,3,-2,1
COc1ccc(OCC(=O)NNC(=S)NC(=O)C2CC2)cc1,7,-5,-5,2,-2.1,4,1,-3,-2
CCSc1nnc2c(n1)[nH]c1c(C)cccc12,-6,0,3,2,-2.2,1,-1,1,-2
O=c1c(-c2ccccc2)c(-c2ccccc2)oc2cc(O)cc(O)c12,-50,6,4,-2,-1.3,-4,-2,25,0
CCCn1cc(CN2CCC(n3nccc3NC(=O)c3ccccc3)CC2)c(C)n1,-2,0,-2,4,-0.3,1,-1,-6,0
Cc1ccc(C(=O)c2c3ccc(N)cc3nn2CCC(N)=O)cc1,26,4,-2,7,-2.0,0,-1,13,1
CN1CCNC(=O)C1CC(=O)NCC1(c2ccccc2)CCCCC1 (stereo not drawn),-3,5,-7,2,-1.1,0,0,0,3
COc1ccc(NC(=O)CNC(=O)Cc2cccc3ccccc23)cc1,1,4,4,-7,-2.6,0,-1,0,-2
CCC(=O)OC1(C)C(=O)C=C2C=C(C3CC3)OC=C2C1=O (stereo not drawn),20,4,-1,10,-1.3,0,1,10,23*
COc1ccc(C(=O)NNC(=O)C(=O)/C=C(\O)c2ccc(C)cc2)cc1,9,-3,4,16,-2.1,4,0,47*,-3
CCN1CCN(c2oc(-c3ccc(OC)cc3)nc2C#N)CC1,-3,-2,-4,-3,-1.6,0,0,-3,-1
CN(CCC#N)CC(=O)Nc1ccc(NC(=O)CN(C)CCC#N)cc1,2,-3,7,-2,-1.9,3,2,-2,3
O=C(NN=Cc1ccc(F)c(F)c1)c1ccc(NS(=O)(=O)c2cccs2)cc1,-9,0,-1,5,-2.5,0,-1,21,-4
Cc1ccn(C(=O)c2ccc(NC(=O)C3CCCCC3)cc2)n1,-6,-1,0,8,-2.1,3,0,-5,-2
COc1ccccc1NC(=O)C1=C(C)Nc2nnnn2C1c1ccncc1 (stereo not drawn),-2,-3,-3,-1,1.3,4,2,-2,1
CCOc1cccc(C2C(C(=O)c3ccc(C)o3)=C(O)C(=O)N2c2nnc(C)s2)c1 (stereo not drawn),18,5,-2,3,-0.5,-5,-1,3,-2

# A portion of the library (hit frequency here may not be typical).
